# Source: PubChem BioAssay
# CBX7 AlphaScr: blocks human CBX7 binding to H3K27me3 peptide; O95931; 1.1% of 66,000 active; AlphaScreen His6-CBX7 / biotin-H3K27me3 peptide binding; hits give low values; normalised signal (fraction of DMSO) (test concentration not listed); in the data active = normalised signal below about 0.5;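 note: 100 nL library stock added to about 20 µL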
# Target sequence (O95931 whole entry, looked up): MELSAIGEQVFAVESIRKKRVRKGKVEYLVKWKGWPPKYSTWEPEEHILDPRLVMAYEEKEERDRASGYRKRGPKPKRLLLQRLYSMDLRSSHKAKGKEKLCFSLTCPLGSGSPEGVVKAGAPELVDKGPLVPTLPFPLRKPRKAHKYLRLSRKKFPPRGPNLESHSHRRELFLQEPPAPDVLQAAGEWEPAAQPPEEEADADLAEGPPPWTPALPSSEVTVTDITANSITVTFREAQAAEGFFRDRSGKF
# CBX7 AlphaScr z-score: further read-out of CBX7 AlphaScr, marked with its call; z-score; measured here: z-score of CBX7 signal; some inactives read as strong as hits; reference of the scale not given here;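 same signal on another scale; lower means less binding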
# The depositor's hits bear a star. This is a subset. The share of hits here may be higher or lower than overall.
SMILES	CBX7 AlphaScr	CBX7 AlphaScr z-score
O=C(CN1C(=O)CCSc2ccccc21)NCCc1c[nH]c2ccccc12	0.94	-2.7
CCOc1ccc(-c2nc(C#N)c(NCCN3CCOCC3)o2)cc1	1.2	1.8
CCC(C)NC(=O)CNC(=O)c1nn(-c2ccc(OC)c(OC)c2)c(=O)c2ccccc12 (stereo not drawn)	1	0.66
CCOc1ccccc1NC(=O)Cn1c(=O)n(Cc2ccc(OC)cc2)c(=O)c2cccnc21	1.2	3.1
CCc1ccccc1NC(=O)Cn1nc(-c2ccc(OC)cc2)ccc1=O	0.99	-0.38
O=C(NCCCN1CCCC1)c1ccc2c(c1)N(Cc1cccc(Cl)c1)C(=O)c1ccccc1S2	0.88	-1.5
CCC(C)NC(=O)CN1C(=O)COc2ccc(C)cc21 (stereo not drawn)	1.1	2.4
CCCSCCCNC(=O)CS(=O)(=O)Cc1nc(-c2cccc(OC)c2)oc1C	1.2	1.7
CCOC(=O)c1cc(-c2ccc(OC)cc2)n(CCC(=O)NCc2ccccc2)c1C	0.9	-2.3
Cc1cccc(CCNC(=O)CN2CCN(Cc3cccc(Cl)c3)C2=O)c1	1.1	1.7
Cc1onc(-c2ccccc2Cl)c1C(=O)Nc1ccccc1N(C)C(=O)c1ccccc1	1.1	1.4
O=C(CSc1nnc(CNC(=O)c2c(F)cccc2Cl)o1)Nc1cccc(F)c1	0.88	-2
CC1CCN(c2nnc(NC(=O)Nc3ccc(F)cc3)s2)CC1	0.82	-0.71
COc1ccccc1-c1cc2nc(C)c(CCC(=O)NC3CCCCC3)c(C)n2n1	1	1.2
Cc1ccc(C(=O)c2oc3ccccc3c2NC(=O)C(C)Oc2ccccc2F)cc1 (stereo not drawn)	1.2	2.3
COc1cccc(C(=O)Nc2c3c(nn2-c2ccc(C)cc2C)CS(=O)(=O)C3)c1	0.87	-1.5
COC(CNC(=O)CN1C(=O)CC(C)(C)Sc2ccccc21)OC	0.96	-0.52
CCN1CCN(c2cc(C)c3cc(NC(=O)Cc4ccccc4Br)ccc3n2)CC1	1.1	0.68
CCCn1cnc2cc(NCc3cc(OC)ccc3OC)ccc21	0.92	-2
Cc1ccc(S(=O)(=O)c2c[nH]c3ccccc3c2=O)cc1	1.1	2.6
Cc1cccc(CN2C(=O)c3ccccc3Sc3ccc(C(=O)NC(C)C)cc32)c1	1	0.64
CCOc1cc2c(cc1OCC)C(c1ccc(C)cc1C)NCC2 (stereo not drawn)	0.99	-0.15
C=CCN1C(=O)c2ccccc2Sc2ccc(C(=O)NCc3cccs3)cc21	1	1.1
O=C1CN(C(=O)c2ccccc2Cl)C(c2ccccc2Cl)c2cc(Br)ccc2N1 (stereo not drawn)	1	0.74
O=S(=O)(Nc1ccc(Cl)cc1)c1cnc[nH]1	0.89	-1.4
CCOc1cc2c(cc1OCC)C1C(C(=O)NC3CCCC3)c3ccccc3C(=O)N1CC2 (stereo not drawn)	1.1	0.81
c1ccc(-c2nc3cc(NCc4cccnc4)ccc3o2)cc1	0.97	-0.29
OCCN1CCN(c2ncnc3scc(-c4ccccc4)c23)CC1	1	0.61
Cc1ccc(CNC(=O)c2cc(-c3cccc(C)c3)nc3ccccc23)cc1	1	1.1
CC1CCC(NC(=O)c2csc3c2CCCCC3)CC1 (stereo not drawn)	1	1.1
O=C(Nc1ccc(Oc2ccccc2)cc1)c1cn(-c2ccc(Cl)cc2)c(=O)c2ccccc12	0.92	-1.1
COc1ccc(NC(=O)CC2C(=O)N(c3cccc(OC)c3)C(=O)N2CCC(C)C)cc1 (stereo not drawn)	0.99	-0.21
CCOc1ccc(NC(=O)Cn2cc(S(=O)(=O)c3ccc(C)cc3)c(=O)c3cc(C)ccc32)cc1	0.84	-2.3
CC1CCN(S(=O)(=O)N2CCC(C(=O)N3CCC(N(C)CC4CCCO4)CC3)CC2)CC1 (stereo not drawn)	0.87	-0.51
Cc1oc(-c2ccc(Cl)cc2)nc1CSCC(=O)NCc1ccccc1Cl	1.1	2.3
Cc1ccc(C)c2[nH]c(=O)c(CCNC(=O)c3cccc(Br)c3)cc12	0.97	-0.74
COc1ccccc1-c1cc2nc(C)c(CCC(=O)Nc3ccc(Br)cc3F)c(C)n2n1	1	0.91
CC1(C(=O)NC2CCCC2)CCC(=O)N1Cc1ccc(F)cc1 (stereo not drawn)	0.86	-2.3
N#Cc1cccc(NC(=O)Cn2nc(Cc3cccnc3)c3ccccc3c2=O)c1	0.99	-0.31
Cc1ccn2c(NC(=O)c3ccc4c(c3)OCO4)c(-c3cccs3)nc2c1	1	0.42

# The results go on:
# Every second line gives: CBX7 AlphaScr | CBX7 AlphaScr z-score
COc1ccc(OCCSc2nc3ccccc3n2C)cc1
  1.2 | 1.7
CC1c2nc3ccccc3n2C(CC(=O)O)C(=O)N1Cc1ccccc1 (stereo not drawn)
  1 | 0.3
CC1CC(C)CN(S(=O)(=O)c2ccc(C(=O)Nc3nc(-c4cccnc4)cs3)cc2)C1 (stereo not drawn)
  1 | -0.05
O=C(c1cc2c(s1)-c1ccccc1OC2)N1CCCCC1
  1.1 | 5.3
O=C(c1cnn(-c2ccccc2)c1-n1cccc1)N1CCCC(C(=O)N2CCc3ccccc32)C1 (stereo not drawn)
  1.1 | 0.62
O=C(CN1CCN(Cc2ccc(Cl)cc2)C1=O)NCc1cccnc1
  0.81 | -2.7
Cc1cc(Br)ccc1N1C(=O)c2ccc(C(=O)O)cc2C1=O
  0.88 | -2.3
Cc1ccc(-c2nnc(NCc3ccccc3)c3ccccc23)cc1
  0.91 | -0.26
CCOc1ccc(CCNC(=O)Cc2nn[nH]n2)cc1OCC
  1 | 1.4
O=C(Nc1c(-c2ccc(F)cc2)nc2ccccn12)c1ccccc1
  0.92 | -2.3
COc1ccc(Nc2cc(C)c3ccccc3n2)cc1
  1.1 | 2.2
Cc1ccc(S(=O)(=O)N2CCCCC2c2cccnc2)c(C)c1C (stereo not drawn)
  0.67 | -0.93
Cc1[nH]c2ccccc2c1CCNC(=O)c1ccc(S(=O)(=O)N2CCOCC2)cc1
  0.8 | -0.2
Cc1ccc2oc(-c3ccc(Cl)c(NC(=O)COc4ccc(C)c(C)c4)c3)nc2c1
  0.97 | -0.64
Cc1ccc(O)c(CCc2ccc(O)cc2)n1
  1.1 | 0.67
Cn1c(C(=O)NC2CCCC2)cc2sc(Cl)cc21
  1.1 | 3.1
COc1ccc(CCNC2CC(=O)N(CCc3ccc(OC)c(OC)c3)C2=O)cc1 (stereo not drawn)
  0.99 | -0.29
CCN1CCN(CCCNC(=O)c2cc3c(-c4ccc(Cl)cc4)nn(C)c3s2)CC1
  1.1 | 0.63
CCCCN(CCCNC(=O)C1CCN(C(=O)c2cc3sccc3n2C)CC1)Cc1ccccc1
  0.9 | -1.8
CCC(C)NC(=O)c1c(-c2ccccc2Cl)noc1C (stereo not drawn)
  1.1 | 2
Cc1cc(C)cc(Nc2nc3ccccc3nc2NS(=O)(=O)c2ccccc2)c1
  0.94 | -1.8
Cc1nc(Nc2ccc(F)cc2)c2cc(C)sc2n1
  1 | 1.5
Cc1csc(NC(=O)c2ccc(CNc3c(N4CCCCC4)c(=O)c3=O)cc2)n1
  1.3 | 0.74
CCCC1=Nc2cc(C(=O)NC(C)c3ccccc3)ccc2Sc2ccccc21 (stereo not drawn)
  0.98 | -0.26
CC(C)CN(CCNC(=O)CC(C(=O)N1CCc2ccccc21)n1ccnc1)CC(C)C (stereo not drawn)
  0.98 | -0.29
Brc1ccc2ncnc(NCCN3CCOCC3)c2c1
  1 | 0.59
CCCCC1CCC(c2ccc(C#N)nc2)CC1 (stereo not drawn)
  1 | 0.47
Cc1ccc(CN2C(=O)c3ccccc3Sc3ccc(C(=O)N4CCOCC4)cc32)cc1
  0.8 | -2.7
Cc1cccc(Cc2c(C)nc3c(C(=O)N4CCN(c5cccc(C)c5C)CC4)cnn3c2C)c1
  0.66 | -9.3
O=C(CC1(CC2=NS(=O)(=O)c3ccccc3N2)CCCC1)NCc1ccccc1
  1 | 1

# The closing four compounds of the section above lead into the next.
# Every second line gives: CBX7 AlphaScr | CBX7 AlphaScr z-score
CCCCC1CCC(c2ccc(C#N)nc2)CC1 (stereo not drawn)
  1 | 0.47
Cc1ccc(CN2C(=O)c3ccccc3Sc3ccc(C(=O)N4CCOCC4)cc32)cc1
  0.8 | -2.7
Cc1cccc(Cc2c(C)nc3c(C(=O)N4CCN(c5cccc(C)c5C)CC4)cnn3c2C)c1
  0.66 | -9.3
O=C(CC1(CC2=NS(=O)(=O)c3ccccc3N2)CCCC1)NCc1ccccc1
  1 | 1
CCN(CC)C(C(=O)NC1CCCC1)c1ccc(C)cc1 (stereo not drawn)
  1.1 | 0.71
Cc1ccc(-n2cc(-c3ccccc3)nc2SCC(=O)NCCc2ccccc2)cc1
  0.82 | -5.9
COC(=O)COc1ccc2c(=O)c(-c3ccc4c(c3)OCCCO4)c(C)oc2c1
  1.1 | 1.1
O=C(CCn1c(=O)[nH]c2ccsc2c1=O)NCc1ccccc1
  0.93 | -0.52
O=C(Nc1ccc2nc(SCc3ccc(Br)cc3)sc2c1)c1ccc(Cl)c(Cl)c1
  1.1 | 0.29
CCOC(=O)c1cnc2cc(Cl)c(OC)cc2c1NCCOC
  1 | 0.53
COc1ccc(CNC(=O)c2csc3c2CCCCC3)cc1
  0.82 | -0.7
COc1ccc(-n2nc(C(=O)NCC(=O)Nc3nc4ccccc4s3)c3ccccc3c2=O)cc1
  0.95 | -0.049
Cc1ccc(CN2C(=O)Cn3cccc3C2C(=O)NC2CCC(C)CC2)cc1 (stereo not drawn)
  1.1 | 1.3
CC(C)C(=O)N1CCN(c2nc(C(C)C)c3c(c2C#N)CC(C)(C)OC3)CC1
  0.89 | -0.13
COc1cccc(C(=O)Nc2c3c(nn2-c2ccccc2C)CS(=O)(=O)C3)c1
  1.3 | 1.7
Nc1ccc(-c2nc3ccccc3o2)cc1Cl
  0.99 | -0.11
CC1CCCC(NC(=O)C2CCN(S(=O)(=O)c3ccc4c(c3)CCC(=O)N4)CC2)C1C (stereo not drawn)
  1.2 | 2.3
Cc1ccccc1CN1C(=O)CSc2ccc(C(=O)NCc3ccccc3)cc21
  0.88 | -1.1
CCCN1Cc2cccc(C(=O)Nc3cc(C)cc(C)c3)c2C1=O
  0.97 | -0.38
CC(Nc1ncnc2ccccc12)c1ccccc1 (stereo not drawn)
  1.1 | 1.9
CCOC(=O)c1cccc(NC(=O)c2cccc3c2C(=O)N(CCOC)C3)c1
  1 | -0.0042
CCOC(=O)c1c(NC(=O)c2ccc(OCCC(C)C)cc2)sc2c1CCCCC2
  1.1 | 2.7
COc1ccccc1CC(=O)Nc1ccc(-c2noc(/C=C/c3ccccc3)n2)cc1
  1 | 0.47
COc1ccc(C2CC(c3ccccc3OC(F)F)n3nnnc3N2)cc1 (stereo not drawn)
  0.97 | -1

# Individual results from the list:
# CBX7 AlphaScr with `Nc1ccc(-c2nc3ccccc3o2)cc1Cl` reads 0.99
# CBX7 AlphaScr with `COc1cccc(C(=O)Nc2c3c(nn2-c2ccccc2C)CS(=O)(=O)C3)c1` reads 1.3
# CBX7 AlphaScr z-score with `CC(Nc1ncnc2ccccc12)c1ccccc1` (stereo not drawn) reads 1.9

# (list continues)
# Every second line gives: CBX7 AlphaScr | CBX7 AlphaScr z-score
NC(=O)C1CCN(CC(=O)Nc2nc(-c3ccccc3)cs2)CC1
  1.1 | 1.1
Cc1cccc(OCc2nc(-c3ccc(Br)cc3)no2)c1
  1.2 | 1.8
O=C(NCCN1CCCCCC1)c1ccc2c(c1)ncn2C1CCCC1
  1.1 | 2.7
CCc1cccc(NC(=O)CNC(=O)c2cc3ccccc3o2)c1
  1.1 | 2.9
COc1cccc(C2=NOC(C(=O)NCCCn3ccnc3)C2)c1 (stereo not drawn)
  0.95 | -0.65
Cc1ccc(C)c(NC(=O)c2c(Oc3ccc(F)cc3)nc(C)c(Cl)c2C)c1
  1.1 | 2.7
CN(c1nc(-c2ccccc2)cs1)C1CCS(=O)(=O)C1 (stereo not drawn)
  0.96 | -0.93
Cc1ccc(C)c(N2CCN(C(=O)Cc3ccc(-n4c(=O)[nH]c5ccsc5c4=O)cc3)CC2)c1
  1.1 | 0.59
CCc1cccc(C)c1Nc1c(-c2ccc(Cl)cc2)nc2cnccn12
  1.4 | 18
Cc1cccc(NC(=O)C2CCCN(C(=O)c3cnn(-c4ccccc4)c3-n3cccc3)C2)c1C (stereo not drawn)
  0.99 | -0.74

# The closing 4 entries of the part before are carried over, then new ones follow.
# Every second line gives: CBX7 AlphaScr | CBX7 AlphaScr z-score
CN(c1nc(-c2ccccc2)cs1)C1CCS(=O)(=O)C1 (stereo not drawn)
  0.96 | -0.93
Cc1ccc(C)c(N2CCN(C(=O)Cc3ccc(-n4c(=O)[nH]c5ccsc5c4=O)cc3)CC2)c1
  1.1 | 0.59
CCc1cccc(C)c1Nc1c(-c2ccc(Cl)cc2)nc2cnccn12
  1.4 | 18
Cc1cccc(NC(=O)C2CCCN(C(=O)c3cnn(-c4ccccc4)c3-n3cccc3)C2)c1C (stereo not drawn)
  0.99 | -0.74
COc1ccc(-c2noc(CCC(=O)NC3CCCC3)n2)cc1
  0.87 | -2
O=C(c1ccc2c(c1)N(Cc1ccccc1)C(=O)c1ccccc1S2(=O)=O)N1CCOCC1
  0.98 | -0.51
CC1CCCN(S(=O)(=O)c2ccc(C(=O)Nc3nnc(-c4cccs4)o3)cc2)C1 (stereo not drawn)
  1 | 0.83
Cc1[nH]c2ccccc2c1C1(O)C(=O)N(Cc2ccc3c(c2)OCO3)c2ccccc21 (stereo not drawn)
  0.74 | -7.1
CCOc1ccc(CCNC(=O)CSc2nc3ncccc3[nH]2)cc1OCC
  0.96 | -0.71
COc1ccc(Nc2cc(C(=O)NC3CCC(C)CC3)c3ccccc3n2)cc1OC (stereo not drawn)
  0.94 | -0.27
COc1ccccc1OCCn1c(C2CC(=O)N(c3ccc(C)c(Cl)c3)C2)nc2ccccc21 (stereo not drawn)
  0.94 | -0.39
COc1ccc(CCNc2oc(COc3ccccc3Cl)nc2C#N)cc1OC
  0.6 | -2.5
Cc1ccc(OCC(O)Cn2nc(C)cc2C)cc1 (stereo not drawn)
  0.99 | -0.19
CCOC(=O)N1CCC(NC(=O)c2ccc3c(=O)n4c(nc3c2)CCCCC4)CC1
  0.92 | -1.2
